Screening results: PubChem BioAssay, National Center for Advancing Translational Sciences (NCATS)
CtBP-E1A blk: inhibitors of CtBP/E1A interaction; AlphaScreen GST-E1A/His-CtBP binding, 1536-well; active compounds read low; control for the full effect not named in the record; hit rate 0.49% among 340,000; activity change, % (no concentration beside the values); AID 651724; in the data active means activity change below about -65%; inconclusive means about -30% to -65%; inactive means above about -30%; note: % is set by controls: 0 for no effect and ±100 for the full control effect
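Steps: dispense buffer (Tris pH 8.0, NaCl 300 mM, TCEP 1 mM, BSA, Tween 20); add 5X protein mix (GST-E1A, His-CtBP, 125 nM each); pin 23 nL compound; 2 h at 37 °C, dark; add 5X beads (50 ug/mL); 1 h; read.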
Six1-Eya2 inh: Six1/Eya2 interaction inhibition; activity change, % (concentration not given with the values); Q15475+O00167; AlphaScreen GST-Six1/His-Eya2 binding, biochemical; active compounds read low; control for the full effect not named in the record; hit rate 0.56% among 360,000; AID 651725; in the data active = activity change below about -65%; inconclusive = about -30% to -65%; inactive = above about -30%; note: % is set by controls: 0 for no effect and ±100 for the full control effect
Target sequence (O00167 whole entry, looked up): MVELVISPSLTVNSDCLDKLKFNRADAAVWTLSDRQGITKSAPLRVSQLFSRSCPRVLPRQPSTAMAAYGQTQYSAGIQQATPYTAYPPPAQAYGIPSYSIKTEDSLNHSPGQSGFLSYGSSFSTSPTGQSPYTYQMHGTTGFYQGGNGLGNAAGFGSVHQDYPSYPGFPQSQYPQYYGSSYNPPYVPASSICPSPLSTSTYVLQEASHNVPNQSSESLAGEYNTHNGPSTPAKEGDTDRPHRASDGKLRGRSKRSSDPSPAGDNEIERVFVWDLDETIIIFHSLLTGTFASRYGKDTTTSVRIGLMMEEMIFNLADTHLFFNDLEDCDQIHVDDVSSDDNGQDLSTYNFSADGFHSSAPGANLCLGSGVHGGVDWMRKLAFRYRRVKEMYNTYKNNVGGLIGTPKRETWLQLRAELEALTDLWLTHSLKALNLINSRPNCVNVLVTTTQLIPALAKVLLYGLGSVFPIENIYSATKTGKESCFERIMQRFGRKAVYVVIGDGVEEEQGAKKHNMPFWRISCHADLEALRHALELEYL
Target sequence (Q15475 whole entry, looked up): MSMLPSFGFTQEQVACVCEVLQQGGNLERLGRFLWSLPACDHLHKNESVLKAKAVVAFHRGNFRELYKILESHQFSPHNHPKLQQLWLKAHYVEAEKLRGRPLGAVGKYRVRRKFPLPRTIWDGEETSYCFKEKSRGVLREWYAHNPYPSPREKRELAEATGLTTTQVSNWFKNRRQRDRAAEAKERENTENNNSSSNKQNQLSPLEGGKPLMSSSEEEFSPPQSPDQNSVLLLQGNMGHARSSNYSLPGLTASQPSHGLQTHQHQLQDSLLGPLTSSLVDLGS
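Six1/Eya2 binding was read as AlphaScreen signal after compounds were pinned into GST-Six1 plus His-tagged Eya2 (5X stock 250/500 nM) in pH 8.0 Tris/NaCl/TCEP buffer, beads added, then incubated 1 h, 37 C, dark.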
gsp ag: activates gsp, the McCune-Albright syndrome mutation; gsp mutant cells, cAMP HTRF, 30 min; control for the full effect not named in the record; Potency, µM (doses to about 76.9 µM), without a hit: at the top dose activation (cAMP increase), hits mostly activators; hit rate 0.13% among 340,000; active = well fitted activation curve with a large enough effect; inconclusive = small, poorly fitted or top-dose-only effect, or another doubt; inactive = no such curve, though single readings can be large or run the other way; cell line not stated here;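 note: phosphodiesterase inhibitor Ro 20-1724 added with compounds to block cAMP breakdown; potency is the fitted concentration of half-maximal effect; nearly all actives have a fitted effect of over 60% in size; about a fifth of the inactives were tested at one dose only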
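Cells stably selected in G418 were plated at 2000/well, grown 16-24 hr, then given compounds in DMSO with the PDE inhibitor […] (300 uM solution added) for 30 min at 37C; cAMP was read by HTRF.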
D2 agonist: activates the human D2 dopamine receptor | activation, % (no concentration beside the values) | hit rate 0.084% among 360,000 | AID 624465 | P14416 | DiscoveRx PathHunter D2 beta-arrestin, luminescence, 90 min; 100% = 57 uM dopamine signal; in the data active = activation above about 40%; inconclusive = about 15% to 40%; inactive = below about 15%; note: compound concentration not given in the record; the text of the record calls up to 30% inactive
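DiscoveRx PathHunter D2 beta-arrestin cells (2,100/well) attached overnight, then compound-stimulated 90 min at 37 C in HBSS/10 mM HEPES/0.1% Tween-20 buffer; beta-galactosidase complementation read by luminescence after 1 h at ambient temperature. Dopamine 57 uM final (EC100) as control.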
gsp antagonist: antagonists of gsp mutant (McCune-Albright syndrome). gsp-mutant cells, cAMP HTRF, 30 min; control for the full effect not named in the record. Potency, µM (titrated, usually from 76.9 µM), without a hit: at the top dose activity change, negative = inhibition, hits mostly inhibitors. hit rate 0.4% among 340,000. AID 624288; active = falling curve of any shape with a large fitted effect; inconclusive = falling curve, mostly with a smaller effect; inactive = flat or rising curve; cell line not stated here;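 note: intracellular cAMP measured with PDE inhibitor Ro 20-1724 present during compound exposure; potency is the fitted concentration of half-maximal effect; % is set by controls: 0 for no effect and ±100 for the full control effect; nearly all actives have a fitted effect of over 65% in size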
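Cells in G418 medium, seeded 16-24 h, 37C; buffer exchange to DPBS + 1 mM CaCl2, 0.5 mM MgCl2, 0.05% BSA; cpds in DMSO + […] (300 uM stock), 30 min 37C; HTRF cAMP detection.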
D2 PAM: human D2 receptor positive allosteric modulation | potentiation, % (concentration not given with the values) | P14416 | DiscoveRx D2 beta-arrestin cells, luminescence, 90 min; 100% = 57 uM dopamine signal | hit rate 0.23% among 360,000 | AID 624464; active = potentiation of 50% or more; inconclusive = 30% to 50%; inactive = 30% or less;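 note: compound concentration not given in the record; tested on top of an EC20 dose of dopamine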
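PathHunter beta-arrestin assay in DiscoveRx D2 cells. Compounds were added with an EC20 of dopamine (50 nM final) for 90 min at 37 deg C. Luminescence was read 1 h after detection reagent, with 57 uM dopamine as the EC100 control.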
* hit, by the source's call; ? = inconclusive; . = not tested or not shown; & = joins results of further samples; [ ] = dose if it differs, or a comment.

SMILES	CtBP-E1A blk	Six1-Eya2 inh	gsp ag	D2 agonist	gsp antagonist	D2 PAM
CCn1c(=O)c(C(=O)Nc2ccccc2C)c(O)c2ccccc21	0	1	-16%	-1.3	0%	-8
COc1ccc(C(c2sc3ncnn3c2O)N2CC(C)OC(C)C2)cc1OC (configuration not stated)	-1	-3	-51%[inhibitor]	-3.4	8%	-3
COc1ccc(NC(=O)CN(C2CCCCC2)S(C)(=O)=O)cc1OC	-1	-1	0%	-2.6	0%	-10
CCn1ccnc1CN(C)C(=O)C1CCC(=O)N(Cc2cccc(C(F)(F)F)c2)C1 (configuration not stated)	-4	11	3%	1.4	7%	8
CC(CN1CCOCC1)OC(=O)C1COc2ccccc2O1 (configuration not stated)	9	3	12%[15.4 µM]	-7.1	11%	-9
CC1Cc2ccccc2N1C(=O)CSc1nnc(N)s1 (configuration not stated)	1	6	15%	0.6	-5%	0
Cc1ccc(NC(=O)CCC(=O)c2cccs2)cc1	-1	4	-3%	-2.1	6%	-14
Cc1cccc(OCCSc2nc3ncnc(N)c3[nH]2)c1	0	16	18%	1.9	7%	4
Cc1ccc(C2(c3noc(CN(C)Cc4ccccn4)n3)CCCC2)cc1	3	-7	24%	5.2	6%	-10
CCc1c(N)nc(N)nc1Nc1ccc(C)c(C)c1	0	-1	-2%	0.5	5%	-17
Nc1ccc2oc(-c3ccccc3Cl)nc2c1	12	-4	15%[15.4 µM]	2.8	10%	-12
CN(Cc1nc2ccccc2c(=O)[nH]1)C(=O)COc1ccccc1Cc1ccccc1	-21	-8	14%	-3.8	-7%	-5
COC(=O)CN1C(=O)COc2ccc(S(=O)(=O)NCc3ccccc3)cc21	.	5	-18%	-0.4	4%	2
COC(=O)c1cc(Cl)c(NC(=O)/C=C/c2ccc(Cl)cc2Cl)cc1OC	4	-1	-9%	-2.3	13%	-5
COc1cc2c(C(=O)NCCN(C)C)cn(CC(C)C)c(=O)c2cc1OC	12	4	29%	2.0	-2%	-9
CCC(=O)Nc1c(C#N)c2nc3ccccc3nc2n1C1CCCCC1	7	0	22%	-2.9	-3%	6
CC1CCc2cc(F)ccc2N1S(=O)(=O)c1ccc(F)cc1 (configuration not stated)	10	8	-97%[inhibitor]	5.7	-10%	0
Cc1ccc(NC(=O)COc2ccc3c(c2)OCO3)c(Cl)c1	-23	-2	-33%[inhibitor]	-1.6	-1%	-1
Cc1ccc[n+](-c2nc3ccccc3nc2C(=C=[N-])C#N)c1	-3&-14	-4&-2	-2%[15.4 µM]	-0.5&-2.0	-8%&-24%	-5&-6
C=CCSc1nc(C)cc(/C=C\c2ccccc2)c1C#N	21	15	5%	-1.0	2%	2
CC(C)N(Cc1cnn(C)c1)C(=O)c1ccc(OC2CCN(Cc3ccccn3)CC2)cc1	-4	-6	-3%	-0.1	6%	-8
CCCC(=O)OCC(=O)Nc1cc([N+](=O)[O-])ccc1OC	-28	-2	34%	-0.2	2%	-5
Cc1ccc(N(CC(=O)N2CCN(c3ccc(F)cc3)CC2)S(=O)(=O)c2c(C)nn(C)c2C)cc1	12	4	-5%	-0.9	1%	-2
NS(=O)(=O)c1cccc(NC(=O)Nc2ccc(Cl)cc2)c1	10	-3	19%[15.4 µM]	5.5	-10%	-7
O=C(COc1ccc(Cl)cc1)Nc1nnc(C2=COCCO2)o1	-23	?	0%[15.4 µM]	-23	1%	-3
CCC1=C(OC(=O)N(CC)CC)N2C(=O)OC(=NCC3CC3)[C@]2(Cc2ccccc2)[C@H]2C1=CC[C@H]1C(=O)NC(=O)[C@H]12	.	-2	-24%	0.4	0%	-2
CN1/C(=C\C(=O)C[n+]2ccc(C(=O)c3ccccc3)cc2)C(C)(C)c2ccccc21	.	-10	-5%	6.1	14%	53*
CC(O)c1cccc(NC2=CC(=O)CC(C)(C)C2)c1 (configuration not stated)	6	3	?	0.3	7%	-3
CCN(CC)c1ccc(/C=N/NC(=O)c2cccc(N3CCCC3=O)c2)cc1	-2	-16	1%	-5.1	-17%	-3
NC(=O)C1=C[C@@H](c2coc3ccccc3c2=O)C[C@@H](OCc2ccc(CO)cc2)O1	1	-1	1%	-1.3	-9%	-2
O=C(/C=C/c1cccc([N+](=O)[O-])c1)c1ccco1	0	8	18%	-0.2	-7%	-4
Cc1cc2c3c(c1C)C(=O)C(=O)N3C(C)(C)CC2C (configuration not stated)	.	-6	1%	-2.0	-7%	-6
CCC(Oc1ccccc1)C(=O)Nc1ccc(-c2nnc(-c3ccco3)o2)cc1 (configuration not stated)	-13	-9	-17%	1.0	?	-3
Nc1ccc(C(=O)N2CCCC2)cc1	2	-2	-52%[inhibitor]	-2.0	11%	-5
Cc1ccc(C)c(/C(O)=C2\C(=O)C(=O)N(CCCn3ccnc3)C2c2cccnc2)c1 (configuration not stated)	33	14	?	-1.6	7%	-4
CN(CC(=O)NCCN1CCOCC1)S(=O)(=O)c1ccc(Cl)cc1	-4	6	-40%[inhibitor]	-1.1	-15%	-4
CCOc1ccc(-c2ncncc2-c2ccc(OC)c(OC)c2)c(O)c1	-7	0	-30%	5.1	?	12
COc1ccc(C(=O)NCC(=O)OCC(=O)N2CCN(S(=O)(=O)c3ccccc3)CC2)cc1	9	5	10%	0.9	8%	-6
CC(C)C[C@H](NC(=O)OC(C)(C)C)c1n[nH]c(=S)n1N	8	0	-6%	0.7	9%	0
O=C(O)C(NC(=O)c1ccccc1)=C(Cl)Cl	7	10	-18%	-0.3	10%	-1
O=C(CCC(=O)Nc1ccccc1)N/N=C/c1cccnc1	4	14	?	-5.7	5%	-6
CCN1C(=O)/C(=C2\C=Cc3ccccc3N2CC)OC1=S	3	-6	14%	-4.8	-1%	-15
O=C(N/N=C/c1ccco1)c1ccc2nc[nH]c2c1	-18	-2	12%[15.4 µM]	-6.6	-9%	-4
CCOc1ccc(CCNS(=O)(=O)c2cccc3nsnc23)cc1OCC	0	-3	17%	-2.8	7%	-26
Cc1ccc(NC(=O)NC(=O)COC(=O)c2ccc(O)cc2O)c(C)c1	-1	-9	-22%	-0.4	.	-9
CC(=O)Nc1ccc(S(=O)(=O)N2CCN(c3nc(C)cc(C)n3)CC2)cc1	2	-4	-18%	-4.5	-6%	-1
Cc1ccc(NC(=O)CN2C(=O)NC(C)(CCc3ccccc3)C2=O)cc1 (configuration not stated)	2	-25	13%[15.4 µM]	-4.5	7%	11
CC(C)(CNC(=O)CNC(=O)C1CCCCC1)N1CCOCC1	-1	1	0%	-2.5	11%	-4
O=C(NC12CC3CC(CC(C3)C1)C2)c1ccc(S(=O)(=O)N2CCOCC2)cc1	-4	-5	0%	-0.6	7%	-4
c1ccc(CC2CCN(c3nnnn3-c3ccccc3)CC2)cc1	14	15	23%	0.1	-19%	-3

Brought forward from above: 5 entries, then new ones.
SMILES	CtBP-E1A blk	Six1-Eya2 inh	gsp ag	D2 agonist	gsp antagonist	D2 PAM
CC(=O)Nc1ccc(S(=O)(=O)N2CCN(c3nc(C)cc(C)n3)CC2)cc1	2	-4	-18%	-4.5	-6%	-1
Cc1ccc(NC(=O)CN2C(=O)NC(C)(CCc3ccccc3)C2=O)cc1 (configuration not stated)	2	-25	13%[15.4 µM]	-4.5	7%	11
CC(C)(CNC(=O)CNC(=O)C1CCCCC1)N1CCOCC1	-1	1	0%	-2.5	11%	-4
O=C(NC12CC3CC(CC(C3)C1)C2)c1ccc(S(=O)(=O)N2CCOCC2)cc1	-4	-5	0%	-0.6	7%	-4
c1ccc(CC2CCN(c3nnnn3-c3ccccc3)CC2)cc1	14	15	23%	0.1	-19%	-3
Oc1cccc(C(Nc2nccs2)c2ccc3cccnc3c2O)c1 (configuration not stated)	-81*	-83*	-7%[15.4 µM]	-1.1	0%	26
CCOc1ccc(NC(=O)CN(C)C(=O)c2nc3nc(C)cc(C)n3n2)cc1OCC	.	8	?	-4.0	-9%	-8
CCCSC1=C(C#N)C(c2ccc(OC)cc2)C2=C(CC(C)(C)CC2=O)N1 (configuration not stated)	0	9	14%	-2.8	?	-4
CCOc1cc(CN2CCSCC2)ccc1O	-6	0	19%	-2.7	-28%	1
Cc1ccc(NC(=O)CN(C)C(=O)C(C)N2CCN(Cc3ccccc3C)CC2)cc1 (configuration not stated)	-2	8	-11%	-0.4	-4%	-6
CC(=O)c1cccc(NC(=O)C2CCN(S(=O)(=O)c3cccs3)CC2)c1	-1	3	?	-3.3	3%	-2
CN(C(=O)COC(=O)Cn1c(C(F)(F)F)nc2ccccc21)c1c(N)n(Cc2ccccc2)c(=O)[nH]c1=O	-14	19	16%[15.4 µM]	-0.5	-15%	5
O=C(O)c1cc(NCc2ccccc2)ccc1N1CCOCC1	3	2	-17%	-1.1	-9%	4
Cc1cccc(C)c1NC(=O)C(c1ccccc1)N1CCC2(CC1)OCCO2 (configuration not stated)	5	5	6%	-4.2	-4%	3
COc1ccc(C(=O)Nc2cc(OC)c(Cl)cc2Cl)cc1	23	6	-21%[15.4 µM]	-2.1	.	-16
C/C=C\C(=O)Nc1cccc(C2=NOC3(C2)C[C@@H](C(N)=O)N(C(=O)CCCCC)C3)c1 (some centres not stated)	-9	6	9%	-0.9	6%	-3
O=C(O)c1cnc(-c2ccccc2)nc1Sc1ccc(Cl)cc1	-17	-9	-36%[inhibitor]	-2.2	?	-4
O=C(Cc1ccccc1F)Nc1cccc(S(=O)(=O)N2CCCCC2)c1	2	-14	2%	-5.4	.	-7
Cc1nnc(SCc2cc(=O)oc3cc(O)ccc23)n1Cc1ccccc1	-8	-1	?	0.2	-27%	-5
COC(=O)c1c(NC(=O)CN2CCC(C(N)=O)CC2)c2c(C)cccc2n1C	-3	11	-10%	-3.0	7%	-1
COc1ccc(C(C(=O)NCC2CCCO2)N(C(=O)CNC(=O)c2cccs2)c2ccccc2)cc1OC (configuration not stated)	3	3	-13%	1.1	-1%	-4
CC(=O)c1ccc(OC2(C)CCN(Cc3csc4ccccc34)C2)cc1 (configuration not stated)	-1	-8	.	3.8	.	-11
Cc1cccnc1C(c1ccc(F)cc1)N(C)C(=O)C1CCN(CCOc2ccc(Cl)cc2Cl)CC1 (configuration not stated)	-22	-11	.	-8.8	.	-18
COc1cc(C(=O)NCC2CCCCC2)cc(OC)c1OC	0	1	21%[15.4 µM]	1.8	12%	-1
c1ccc(-c2nc3ccccc3s2)nc1	8&14	10&3	?	-3.7&-4.2	9%&-1%	-11&-7
C[C@H](CO)N1C[C@H](C)[C@@H](CN(C)C(=O)Nc2ccc3c(c2)OCO3)Oc2ccc(NS(=O)(=O)c3ccc(F)cc3)cc2C1=O	-14	5	.	-0.3	-6%	.
O=C(Nc1ccc2c(c1)OCO2)c1ccc2c(c1)OCO2	-14	-7	16%	-2.7	7%	-20
